# Source: PubChem BioAssay (National Center for Advancing Translational Sciences (NCATS))
# Vaccinia mCherry: qHTS for Stage-Specific Inhibitors of Vaccinia Orthopoxvirus: mCherry Reporter Primary qHTS. 310,000 compounds, 0.63% hits. Vaccinia virus mCherry reporter infection, fluorescence; about a quarter of the inactives have no number. Potency, µM (highest dose often 36.5 µM), for inactives: at the highest dose activity change, negative = inhibition, usual class: inhibitors; active = well fitted inhibition curve with a large enough effect; inconclusive = small, poorly fitted or top-dose-only effect; inactive = no such curve, though single readings can be large or run the other way; tested in A549 cells; further: nearly all actives have a fitted effect of over 35% in size; inactives centre near -10
# VACV Venus inh: qHTS for Stage-Specific Inhibitors of Vaccinia Orthopoxvirus: Venus Reporter Primary qHTS | AID 720580, 2013 | Vaccinia virus Venus reporter expression, fluorescence | Potency, µM (series often up to 36.5 µM), for the others: at the top dose activity change, negative = inhibition, usual class: inhibitors | 330,000 compounds, 0.46% hits; active means well fitted inhibition curve with a large enough effect; inconclusive means small, poorly fitted or top-dose-only effect; inactive means no such curve, though single readings can be large or run the other way; tested in A549 cells; further: nearly all actives have a fitted effect of over 30% in size; inactives centre near -10
# * marks the source's active call; other numbers are inactive results; i = inactive; ? = inconclusive; / = not tested or not shown; [ ] = remark or other dose. On the % scale 0 is the no-effect control and ±100 the full control effect; potency means the concentration at half of the fitted maximal effect.
SMILES	Vaccinia mCherry	VACV Venus inh
Cc1csc(-c2ccc3cc(Cl)cc(Cl)c3n2)n1	14.6%	1.5%
O=C(c1ccc(S(=O)(=O)Cc2ccccc2F)c([N+](=O)[O-])c1)N1CCCC1	-8.4%	1.6%
O=C(CC1N=C2c3ccccc3N=C(SCc3cccc(F)c3)N2C1=O)NC1CCCCC1 (stereo unspecified)	-12.9%	-14.0%
O=C(Nc1cc(C(F)(F)F)ccc1Cl)c1cccc(N2C(=O)CCC2=O)c1	i	-10.2%
CC1CCc2sc(C(=O)Nc3nnc(SCc4ccc(F)cc4)s3)cc2C1 (stereo unspecified)	/	-18.2%
COC(=O)c1ccccc1NCc1cc(=O)oc2cc(O)c(O)cc12	7.08µM*	?
COc1ccccc1C(=O)N/N=C(\C)CC(=O)Nc1ccccn1	-7.5%	-1.8%
Cc1ccc(-c2nc(S(=O)(=O)c3ccc(C)cc3)c(SCC(=O)Nc3ccc(F)cc3)o2)cc1	?	?
CCOc1ccc(NC(=O)c2ccc(F)c(S(=O)(=O)N(CC)Cc3ccccc3)c2)cc1	-43.5%	-38.8%
COc1ccc(NC(C)=O)cc1NC(=O)CN1CCN(CC(=O)Nc2ccccc2Cl)CC1	/	-18.6%
O=C(NC(c1ccccc1)c1ccccn1)c1cccc([N+](=O)[O-])c1 (stereo unspecified)	-27.3%	8.7%
O=C(C1CC(c2ccccc2O)=NO1)N1CCc2ccccc2C1 (stereo unspecified)	-5.4%	-10.3%
COc1ccccc1CNC(=O)C1Cc2cc(S(=O)(=O)N3CCCCC3)ccc2N1C(C)=O (stereo unspecified)	-4.9%	-9.9%
COc1ccc(NC(=O)Cn2nnc(C(=O)NCCc3ccccc3)c2N)c(OC)c1	i[7.34 µM]	0.0%[7.34 µM]
COC(=O)Cc1ccc(NC(=S)NCc2cccc(OC)c2)cc1	-11.5%	-1.6%
COc1ccc(CNCc2ccc(F)cc2)c(OC)c1	-1.6%	-1.9%
C(=N\N1CCN(Cc2ccccc2)CC1)/c1ccccc1	?	-2.9%
NS(=O)(=O)c1ccc(CCNC(=O)COC(=O)CC(c2ccccc2)c2ccccc2)cc1	-6.4%	-8.4%
C=CCCC(=O)N1CCC(n2nccc2NC(=O)CCCc2ccccc2)CC1	-20.9%	-1.6%
NC(=O)c1cccn1Cc1ccccc1Cl	i	-9.2%

# A different layout for some results above:
COc1ccccc1C(=O)N/N=C(\C)CC(=O)Nc1ccccn1
  Vaccinia mCherry: -7.5%
  VACV Venus inh: -1.8%

NC(=O)c1cccn1Cc1ccccc1Cl
  Vaccinia mCherry: i
  VACV Venus inh: -9.2%

# (listing goes on)
SMILES	Vaccinia mCherry	VACV Venus inh
NC1=NC(=O)S/C1=C\c1ccc(F)cc1	i	-4.7%
O=C(Nc1ccc(C(=O)c2ccccc2)cc1)c1ccccc1	?	-30.0%
Cn1nc(C(F)(F)F)c2cc(C(=O)N3CCOCC3)sc21	i	-17.2%
Cc1ccc([N+](=O)[O-])cc1-c1ccc(/C=C(\C#N)c2[nH]nc(N)c2C#N)o1	10µM*	?
O=C1C=C(Nc2ccccc2)c2ccccc2C1=O	?	7.94µM*
O=C(CSc1ccc(F)cc1)Nc1ccc(C2SCCS2)cc1	i	0.2%
CC1CCCC(C)N1C(=O)COC(=O)c1cc(-c2cccs2)nn1-c1ccccc1 (stereo unspecified)	-3.4%	-15.5%
O=C(NCCc1nc2ccccc2n1CCCOc1ccccc1)C1CCCCC1	12.3%	-22.5%
O=C(NC12CC3CC(CC(C3)C1)C2)N1CC2Cc3cccc(=O)n3C(C2)C1 (stereo unspecified)	/	?
Cc1cc(NCC2CCCO2)n2c(nc3ccccc32)c1C#N (stereo unspecified)	4.8%	14.6%
Cn1nnc2c(N3CCCCC3)nccc21	/	-14.6%
Cc1noc(C)c1C(=O)N(C)Cc1ccccc1	-12.1%[7.34 µM]	-20.7%[7.34 µM]
CC(C)c1ccc2occ(CC(=O)N(Cc3ccc(F)cc3)C3CCS(=O)(=O)C3)c2c1 (stereo unspecified)	-21.2%	-16.4%
O=C(CSc1nc2ccccc2c(=O)[nH]1)c1ccccc1	-4.7%	-13.1%
Cc1cccc(C(=O)NCc2ccco2)c1	i	-3.2%
Nc1c(C(=O)N/N=C/c2cccnc2)oc2nc(-c3ccccc3)cc(-c3ccco3)c12	?	16.0%
Cc1ccc2cc(CCNS(=O)(=O)c3ccc(F)cc3)c(=O)[nH]c2c1C	-24.6%	-21.8%
CCN1CCc2c(sc(NC(=O)c3ccc(S(=O)(=O)N4CCCC(C)C4)cc3)c2C(=O)OC)C1 (stereo unspecified)	-14.2%	-18.1%
C=CCn1c(C)nnc1SCC(=O)c1[nH]c(C)c(C(C)=O)c1C	i	-7.0%
COc1ccccc1N1CC(C)(C)C(=O)N(C(=O)c2ccc(C)cc2)C1=S	-23.1%	?
C[C@H](CO)N1C[C@H](C)[C@@H](CN(C)C(=O)Nc2ccc3c(c2)OCO3)Oc2c(NS(=O)(=O)c3ccc(F)cc3)cccc2C1=O	?	-19.2%
CN(C(=O)COC(=O)/C=C/c1ccc2c(c1)OCO2)c1c(N)n(Cc2ccccc2)c(=O)[nH]c1=O	i	-6.9%
Cc1cccc(NC(=O)/C(C#N)=C\c2ccc(C(=O)O)cc2)c1	i	-8.9%
CNc1snc(C)c1C(=O)OCC(=O)Nc1ccc(C)cc1F	-0.1%	-12.6%
CC(OC(=O)/C=C/c1cccc(Cl)c1)C(=O)NC1CCCCC1C (stereo unspecified)	-14.7%	-1.5%
Cc1ccccc1OCCNC(=O)c1ccco1	31.1%[activator]	-3.9%
CC1(C(=O)NS(=O)(=O)c2cccc(F)c2)CCN1C(=O)C1CCCCC1 (stereo unspecified)	17.8%	-3.5%
COc1ccc(N2CCN(CCCNC(=O)C3(S(=O)(=O)c4ccc(Cl)cc4)CC3)CC2)cc1	i	-19.2%
Cc1c(C(=O)O)cccc1-n1c(C)cc(/C=N/Nc2ccc([N+](=O)[O-])cn2)c1C	?	-1.0%
COc1cccc(C(=O)NCCN2C(=O)S/C(=C/c3cccs3)C2=O)c1OC	i	8.8%
COc1cc(NC(=O)c2cc(Cl)c(OC)c(Cl)c2)ccc1NC(=O)c1cc2ccccc2o1	-3.3%	-6.2%
O=C1Nc2ccccc2C(=O)N(Cc2ccccc2)C1C(=O)NC1CC1 (stereo unspecified)	-20.0%	-8.7%
COc1cc2ccccc2cc1C(=O)N(CCN(C)C)c1nc2ccc(C)cc2s1	-5.0%	-24.5%
O=c1cc(CSc2nnnn2-c2ccccc2)nc2scc(-c3ccccc3)n12	-7.3%	-3.5%
COc1ccc(-c2nc(SCC(=O)NCC3CCCO3)c(-c3ccc(Cl)cc3)[nH]2)cc1 (stereo unspecified)	-7.0%	-0.4%
COC(=O)C(Cc1c[nH]c2ccccc12)NC(=O)CNC(C)=O (stereo unspecified)	/	1.3%
Cc1cccc(C)c1NC(=O)C(c1ccncc1)n1c(=O)c(-c2ccccc2)nc2ccccc21 (stereo unspecified)	-24.2%	-6.3%
COc1ccc(N2CCN(C(=O)CCS(=O)(=O)c3ccc(C)cc3)CC2)cc1	-12.3%	-6.8%
Cc1cc(C)nc(SC(C(=O)O)c2ccccc2)n1 (stereo unspecified)	-12.6%	-16.2%
Cc1ccc(-c2nc3c(=O)n(-c4ccccc4)c4c(c(=O)n(C)c(=O)n4C)c3o2)cc1	-24.1%	-8.7%
CCN1C(=O)[C@H]2[C@@H](c3ccc(C)cc3)N3C(=O)N(c4cccc(Br)c4)C(=O)[C@@]3(CC)[C@H]2C1=O	-2.0%	-10.3%
Cc1ccccc1NC(=O)C[n+]1cc(-c2ccccc2)n2c1CCC2	-13.5%	-7.2%
CC1=C(C#N)C(NC(=O)c2ccc(C)cc2)(C(F)(F)F)C(=O)N1 (stereo unspecified)	-10.0%	-2.8%
O=C(Nc1ccccn1)c1ccc(-c2ccccc2)cc1	7.3%	-13.7%
COc1ccc(-c2noc(CCC(=O)NCc3cc(Br)ccc3OC)n2)cc1	/	-12.4%
c1cnc(NC2C3CC4CC(C3)CC2C4)nc1 (stereo unspecified)	-25.8%	-22.9%
Cc1ccc(NC(=O)Cn2c(=O)c(C(F)(F)F)nc3ccccc32)c(C)c1	-6.1%	-5.2%
Cc1cc(C(=O)NNC(=O)/C=C/c2ccco2)c(C)o1	-14.9%	-12.2%
O=C(COC(=O)C1=COCCO1)Nc1cccc(Oc2ccccc2)c1	-9.4%	-5.3%
COc1ccc(NC(=O)Nc2c(C)n(C)n(-c3ccccc3)c2=O)c(OC)c1	-10.1%	-8.2%
CCc1ccc(NC(=S)N2CCCCCCC2)cc1	-10.9%	-13.9%
Cc1ccc(C2NC(=S)N3C(c4ccc(C)cc4)NC(=S)N23)cc1 (stereo unspecified)	?	?
Cc1ccccc1Cn1ccc(NC(=O)c2cc3nc(-c4ccco4)cc(C(F)(F)F)n3n2)n1	/	-24.3%
CC[C@H](C)[C@@H](CN[C@H](CCCCNC)CNC)NCC1CCCC1	i	-1.0%
CCn1c(=O)c(C(=O)NNC(=O)Cc2ccccc2)c(O)c2ccccc21	i	-0.1%
CCN(CC)CCOC(=O)c1ccc(NC(=O)Cn2ncc3c2-c2cc(C)ccc2OC3)cc1	-14.0%	-5.9%
Cc1cc(C)c(S(=O)(=O)NCc2cn3c(C)csc3n2)cc1C	-3.2%	-14.5%
CCN(C(=O)c1ccc(=O)n(C)n1)c1c(N)n(Cc2ccccc2)c(=O)[nH]c1=O	i	-13.0%
COC(=O)c1cc(OC)c(OC)cc1N=CC1=C(O)CC(C)(C)CC1=O	/	-17.4%
COc1cc([N+](=O)[O-])ccc1NC(=O)COC(=O)c1n[nH]c2ccccc12	i	-6.5%

# (next part)
SMILES	Vaccinia mCherry	VACV Venus inh
CCO[C@@H]1OC(C(N)=O)=C[C@H](C(C)(C)C)[C@H]1CCCO	i	-7.9%
NCCCC[C@@H]1NC(=O)c2cc([N+](=O)[O-])cc(F)c2NCCCC[C@@H](C(N)=O)NC(=O)[C@H](CCC(N)=O)NC1=O	i	-11.7%
CCC(C)[C@H](NC(=O)NCc1ccccn1)C(=O)OC (stereo partly specified)	-16.8%	-12.0%
CC1=C(C(=O)Nc2ccccc2)C(c2ccc(C(=O)O)cc2)n2ncnc2N1 (stereo unspecified)	-16.3%	-6.8%
O=C(N/N=C/C=C\c1ccccc1[N+](=O)[O-])c1ccncc1	6.1%	-0.9%
CC(C)(C)C(=O)CNCC(=O)C(C)(C)C	-15.9%	-4.2%
Cc1ccc(CNC(=O)c2nnn(CC(=O)Nc3cc(C)ccc3C)c2N)cc1	i	-8.5%
COC(=O)C[C@@H]1C=C[C@H](NC(=O)Cc2ccccn2)[C@@H](CO)O1	-7.8%	-1.3%
CCc1ccc(N2C(=O)C3CCCN3C2=S)cc1 (stereo unspecified)	i	-6.1%
COc1ccc(C2CC(c3cccs3)=NN2C(=O)COC(=O)C2CCCCC2)cc1OC (stereo unspecified)	-3.2%	-3.7%
CS(=O)(=O)NCc1ccc(C(=O)NC2CCCCC2)cc1	-11.6%	-8.6%
Cc1cccc(OCc2nnc(SCC(=O)NC3CCCC3)n2C)c1	-18.9%	1.0%
COC(=O)c1cc(NS(=O)(=O)c2ccc(N3CCC(C)CC3)c([N+](=O)[O-])c2)cc(C(=O)OC)c1	-18.2%	-13.5%
C=CCSc1nnc(CNS(=O)(=O)c2ccc(C)cc2)n1C	-16.6%	1.0%
CN(C)c1cccc(C(=O)N2CCCC(CCC(=O)NCc3ccccc3F)C2)c1 (stereo unspecified)	-13.5%	-23.6%
O=[N+]([O-])c1ccc(O)c(C=Nc2ccc3nc(-c4ccccc4)[nH]c3c2)c1	-22.8%	-10.7%
COCCn1c(=O)[nH]c(=O)c2cc(C(=O)c3cc(OC)ccc3O)cnc21	-12.2%	-5.8%
O=C(COC(=O)c1cccc(S(=O)(=O)N2CCCCC2)c1)NCc1ccccc1	-6.2%	-16.5%
C/C(=N\NC(=O)c1cccc(C)c1O)c1ccc(NC(=O)Cc2ccccc2)cc1	i	-13.0%
COc1cccc(NC(=O)CN(C)C(=O)/C=C/c2ccc3ccccc3n2)c1	-8.8%	-22.9%
COc1cc(C[C@@H]2C(=O)OC[C@H]2Cc2ccc(OC)c(OC)c2)ccc1O	?	?
CCOC(=O)C1CCN(C(=O)Cn2nc(C)n3c(cc4sccc43)c2=O)CC1	-2.8%	-4.1%
COc1cccc(OCC(=O)NN=C2c3ccccc3-c3ccccc32)c1	-1.9%	-19.3%
O=C(C[C@H]1CC[C@@H](NC(=O)C2CC2)[C@@H](CO)O1)NCc1ccccc1Cl	-7.0%	-1.6%
CCC(C(=O)O)n1nnc(-c2ccc(-c3ccc(OC)cc3)cc2)n1 (stereo unspecified)	-5.4%	-6.9%
Cc1cc(N=Cc2c(O)ccc3cc(Br)ccc23)no1	-18.0%	-19.4%
Cc1cc(C)cc(NC(=O)c2cnc3sc(N4CCCC4)nn3c2=O)c1	?	?
